Source: PubChem BioAssay
Vaccinia mCherry: vaccinia inhibition (mCherry reporter). Vaccinia virus mCherry reporter infection, fluorescence; about a quarter of the inactives have no number. Potency, µM (doses to about 36.5 µM), for inactives: top-dose activity change, negative = inhibition, actives largely listed as inhibitors. 310,000 compounds, 0.63% hits. AID 720579; active = well fitted inhibition curve with a large enough effect; inconclusive = small, poorly fitted or top-dose-only effect; inactive = no such curve, though single readings can be large or run the other way; tested in A549 cells; also: nearly all actives have a fitted effect of over 35% in size; inactives centre near -10
VACV Venus inh: inhibitors of vaccinia virus (Venus reporter) | AID 720580 | Potency, µM (highest dose often 36.5 µM), for the others: top-dose activity change, negative = inhibition, hits mostly inhibitors | 330,000 compounds, 0.46% hits | Vaccinia virus Venus reporter expression, fluorescence; active means well fitted inhibition curve with a large enough effect; inconclusive means small, poorly fitted or top-dose-only effect; inactive means no such curve, though single readings can be large or run the other way; tested in A549 cells; also: nearly all actives have a fitted effect of over 30% in size; inactives centre near -10
Active calls of the source: *; i = inactive; ? = inconclusive; nt = no result given; & = joins results of further samples; [ ] = another dose, or the depositor's remark. % is scaled to controls: 0 for no effect and ±100 for the full control effect; potency is read from the fitted curve at half-maximal effect. Not a hit list. About 0.87% of those tested had a hit in this group.

SMILES	Vaccinia mCherry	VACV Venus inh
CCOC(=O)C1=C(CN2CCN(CCC#N)CC2)NC(=O)NC1c1ccc2c(c1)OCO2 (stereo not given)	5.0%	0.9%
Cc1cc(S(=O)(=O)NCC(C)C)ccc1OCC(=O)N1CCOCC1	nt	3.1%
COc1cccc(-c2cc3nc(NCc4ccccc4OC)n(C)c(=O)c3s2)c1	-20.6%	?
Clc1nc(Nc2ccccc2)nc(Nc2ccccc2)n1	-14.7%	-15.3%
Cc1nc2nc(-c3ccccc3)nn2c(C)c1Cl	i	0.0%
CC(=O)OCC1=C(C(=O)O)N2C(=O)[C@@H](NC(=O)CSc3ccncc3)[C@H]2SC1	1.6%	7.8%
CC(C)(C)n1nc(C2CC2)cc1NC(=O)Nc1ccc(Cl)cc1	-7.1%	-9.8%
Cc1ccc(Cl)cc1N1CCN(c2ncnc3onc(-c4ccc(F)cc4)c23)CC1	-0.5%	7.4%
Cc1csc(SCCn2c(N3CCCC3)nc3c2c(=O)[nH]c(=O)n3C)n1	nt	-0.6%
COc1ccc(N2CC(c3nc(-c4cc(OC)c(OC)c(OC)c4)no3)CC2=O)cc1Cl (stereo not given)	i	-3.9%
CCOC(=O)CNC(=O)Cn1cnc2c(nnn2-c2ccc(OC)cc2)c1=O	i	-9.3%
COc1ccc([C@H]2C[C@@H](O)[C@H](n3cc(COC(=O)c4ccccc4)nn3)CN2Cc2cccs2)cc1	?	-22.2%
Cc1ccc(NC(=O)c2ccc(NC(=O)C3CCCC3)cc2)c(C)c1	-21.9%	-10.3%
O=C(Cn1cnc2ccccc21)N/N=C/c1cccs1	-8.0%	-4.3%
CCn1cc(CN2CCCC(C(=O)Nc3cccc(-n4cccn4)c3)C2)c(C)n1 (stereo not given)	-4.1%	-18.2%
Cc1ccc(OCC(=O)Nc2ccc(S(=O)(=O)N3CCOCC3)cc2)c(C)c1	0.3%	12.3%
O=C(Nc1ccncc1)c1ccc([N+](=O)[O-])cc1Cl	-21.0%	-15.0%
COc1ccc(N(CC(=O)Nc2cccnc2)S(=O)(=O)c2ccccc2)cc1OC	-16.9%	5.1%
COc1ccc(NC(=O)CCc2nc(-c3ccccc3F)no2)cc1	nt	-5.4%
CCN(CC)C(=O)CSc1ncnc2c1nnn2-c1ccc(F)cc1	-6.6%	-6.4%
Cc1c(-c2cccc(NC(=O)Cc3ccccc3)c2)nc2ncccn12	-9.5%[7.34 µM]	-12.0%[7.34 µM]
O=C(CSc1ncnc2[nH]ncc12)Nc1cccc(Oc2ccccc2)c1	-28.1%	-15.3%
O=C(CN1CCc2ccccc2C1)Nc1cccc(S(=O)(=O)N2CCOCC2)c1	-19.7%	-25.4%
CC1c2cc3c(cc2CCN1C(=O)c1ccc(Cl)cc1)OCCCO3 (stereo not given)	-22.5%	?
O=C(NCc1cccs1)c1cc2c(s1)-c1ccccc1OC2	-25.3%	?
Brc1cccc(-c2nc3ccc(Br)cn3c2Cc2ccsc2)c1	i	-8.0%
CC(C(=O)N(C)Cc1cccc(F)c1)N1CCN(S(=O)(=O)c2ccc3c(c2)OCCCO3)CC1 (stereo not given)	-7.2%	-17.4%
CC(C)CC(=O)Nc1nnc(SCc2cc(=O)n3ccccc3n2)s1	-28.9%	-25.7%
COc1cccc(NC(=O)Cn2c(-c3cncs3)nc3ccccc32)c1	nt	1.8%
COc1ccc(-c2cn3c(C)c(C(=O)N4CCN(c5ccccc5F)CC4)sc3n2)cc1	14.6%	-9.7%
C=CCSc1nnc2nc3c(nn12)c1cc(C)ccc1n3CC=C	?	-25.3%
Cc1cc(C)cc(NS(=O)(=O)c2ccc3[nH]cc(C(=O)NCc4ccco4)c(=O)c3c2)c1	10µM*	11.2µM*
N#CCC(=O)N/N=C/c1cn(Cc2ccc(Cl)cc2Cl)c2ccccc12	i	-9.0%
O=C(O)C1=C(OCc2ccccc2)C(=O)NCC1	i	-4.2%
CCN(CC)C(=O)[C@H]1CC(CC(=O)NCc2cccc(C(F)(F)F)c2)C(=O)N2CCc3c([nH]c4ccc(OC)cc34)[C@]12C (stereo not given in full)	10µM*	?
O=C(NCc1ccc(F)cc1)c1cc(C2CCCCN2S(=O)(=O)c2ccc(F)cc2F)on1 (stereo not given)	-13.8%	-4.3%
COc1ccc(N=C2S/C(=C\c3cc(C)n(C)c3C)C(=O)N2C)cc1	nt	-28.6%
COc1ccc(C(=O)NCCCN2CCN(CCCNC(=O)c3ccc(OC)c(OC)c3)CC2)cc1OC	-8.0%	11.5%
Cc1ccc(CNC(=O)/C=C/[C@H]2O[C@@H](n3cc(C)c(=O)[nH]c3=O)C[C@@H]2O)o1	5.5%	-5.9%
Cc1ccc(Cn2c(C)c3cnn(CC(=O)N4CCN(c5cc(C)ccc5C)CC4)c(=O)c3c2C)cc1	-22.0%	-28.5%

Complete entries, looked up by structure. Values in the order: Vaccinia mCherry, VACV Venus inh
`C=CCSc1nnc2nc3c(nn12)c1cc(C)ccc1n3CC=C` in the list: ?, -25.3%
`Cc1ccc(Cn2c(C)c3cnn(CC(=O)N4CCN(c5cc(C)ccc5C)CC4)c(=O)c3c2C)cc1` in the list: -22.0%, -28.5%
`COc1ccc(N=C2S/C(=C\c3cc(C)n(C)c3C)C(=O)N2C)cc1` in the list: nt, -28.6%
`N#CCC(=O)N/N=C/c1cn(Cc2ccc(Cl)cc2Cl)c2ccccc12` in the list: i, -9.0%
`Cc1ccc(CNC(=O)/C=C/[C@H]2O[C@@H](n3cc(C)c(=O)[nH]c3=O)C[C@@H]2O)o1` in the list: 5.5%, -5.9%

Continuation:
SMILES	Vaccinia mCherry	VACV Venus inh
CC(C)n1cc(CN2CCC(n3nccc3NC(=O)C3CCCC3)CC2)cn1	-6.9%	-4.9%
Nc1ccc(-c2cc(NC=O)c3ncc(-c4cccc(C(F)(F)F)c4)n3c2)cn1	?	11.2µM*
CCN(C[C@H]1N[C@@](Cc2ccccc2)(C(=O)OC)[C@H]2C(=O)N(Cc3ccccc3)C(=O)[C@@H]12)S(=O)(=O)c1ccc(C)cc1	-16.0%	-22.3%
COc1ccc(C(=O)NNc2ccccc2)cc1OC	i	-11.9%
CC(C)CC(=O)Nc1ccc(N2CCN(C(=O)c3cccs3)CC2)cc1	8.8%	-1.8%
COc1ccc(C(CNC(=O)c2c(C)nn(Cc3ccc(C)cc3)c2Cl)N2CCOCC2)cc1 (stereo not given)	-19.9%	-12.5%
Cc1nsc2c1ccc1ccccc12	i	8.0%
CCNc1ccc(S(=O)(=O)N(C)C)cc1NCC(=O)Nc1ccc(F)c(Cl)c1	-15.9%	-20.6%
Cc1ccc(OCc2nc(C#N)c(N3CCCC3)o2)cc1	-16.0%	-19.0%
Cc1oc(-c2ccccc2F)nc1CSc1nnc(C)n2c1cc1occc12	-8.8%	-3.2%
CC(C)c1ccc(NC(=O)Nc2nc(C(N)C(C)C)cs2)cc1 (stereo not given)	?	?
Cc1ccc(OCCC(=O)OCC(=O)Nc2ccc3c(c2)OCCO3)cc1	-11.8%	4.7%
CCN(CCNCC(O)COc1ccccc1C(C)C)c1cccc(C)c1 (stereo not given)	?	?
CSc1nnc(NC(=O)c2nc(S(=O)(=O)Cc3ccccc3F)ncc2Cl)s1	i	-6.2%
CC1CCc2sc(C(=O)OCC(=O)NCc3ccccc3)cc2C1 (stereo not given)	-12.2%	-27.3%
COC(=O)C1=C(C)N(C)C(=O)NC1c1cc2c(cc1[N+](=O)[O-])OCO2 (stereo not given)	-7.8%	-15.3%
CCOc1ccc(CNCc2c(C(=O)O)n(Cc3ccccc3F)c3cc(OC)ccc23)cc1	-12.7%	-7.9%
CN(CC(=O)Nc1nccs1)S(=O)(=O)c1ccc(F)cc1	i	-4.2%
Cc1ccc(C(=O)NN(CCC#N)C2=NS(=O)(=O)c3ccccc32)cc1	-13.1%	1.6%
CC(=O)N1c2ccccc2S(=O)(=O)c2c1ccc1ccccc21	-11.9%	-2.6%

Ordered by number of heavy atoms (largest number first): some entries from above.
SMILES	Vaccinia mCherry	VACV Venus inh
CSc1nnc(NC(=O)c2nc(S(=O)(=O)Cc3ccccc3F)ncc2Cl)s1	i	-6.2%
C=CCSc1nnc2nc3c(nn12)c1cc(C)ccc1n3CC=C	?	-25.3%
Cc1nsc2c1ccc1ccccc12	i	8.0%

Next section
SMILES	Vaccinia mCherry	VACV Venus inh
COc1ccc(CC(=O)Nc2ccc(N3CCN(c4ccc(OC)cc4)CC3)c(C#N)c2)cc1	-24.1%	-18.3%
Cc1nnc(SCc2cc(=O)n3[nH]cnc3n2)s1	i	-12.6%
C/C(CC(=O)NCc1ccc(F)cc1)=N\NC(N)=S	-19.3%	-27.6%
COc1ccc(CCn2c(C)cc(C(=O)CSc3nnnn3C)c2C)cc1	nt	-20.4%
O=C1c2ccccc2-c2nc3ccccc3n21	-11.8%	-14.4%&-8.0%
O=C(NCc1ccc(F)cc1)c1c2c(nc3ccccc13)C(=O)N(C1CCCCC1)C2	i	-22.8%
CCOc1ccc(C(=O)C[n+]2ccc(C(=O)NCCO)cc2)cc1	-0.8%	-6.4%
O=C(Nc1cccc(C(F)(F)F)c1)c1cc(S(=O)(=O)N2CCCC2)c[nH]1	0.5%	8.6%
Cc1ccccc1OCCC(=O)OCC(=O)Nc1ccc(C(N)=O)cc1	-1.6%	-11.9%
CCOC(=O)c1cccnc1SCC(=O)N(C)c1ccccc1	i	-12.6%
CCS(=O)(=O)Nc1ccc(C(=O)CC2(O)C(=O)Nc3ccc(Br)cc32)cc1 (stereo not given)	-3.2%	-12.1%
O=C(NCc1ccccc1)c1ccc(NC(=O)C2CCC2)cc1	-1.7%	6.2%
Cc1nnc(SCc2cccc([N+](=O)[O-])c2)s1	i	-20.1%
CCOc1ccc(C(O)C(CN2CCOCC2)c2ccccc2)cc1 (stereo not given)	nt	-27.5%
CC(=O)N1CCc2cc(S(=O)(=O)N3CCOCC3)ccc21	-12.0%	-15.0%
COC(=O)c1ccc(NC(=O)CSc2nc(C)cc(C)c2C(=O)Nc2ccccc2)cc1	-7.1%	-1.3%
Cc1cc2n(n1)C(c1cccs1)Nc1ccccc1-2 (stereo not given)	-16.8%	-16.4%
Cc1ccccc1NC(=O)NCCc1c[nH]c2ccccc12	-5.0%&-5.0%	-16.7%&-9.2%
Oc1ccccc1-c1nc2cnccn2c1Nc1ccc2c(c1)OCCO2	-5.8%	-17.2%
Cc1ccc2[nH]c(C(=O)N3CCN(c4cccc(Cl)c4)CC3)cc2c1	-20.9%	5.4%
COc1ccc(C(=O)O)cc1NC(=S)NC(=O)c1ccc(-c2ccc(Cl)cc2)o1	i	1.4%
CCN1C(=S)N[C@@H](c2cccc(F)c2)C(C(=O)OC)=C1C	i	-9.6%
COc1ccc(-c2csc(/C(C#N)=C\c3ccc(O)c([N+](=O)[O-])c3)n2)cc1OC	-5.7%	-15.2%
CC(=O)Nc1ccc(-c2nnc3n(CC(C)C)c(=O)c4ccccc4n23)cc1	-17.8%	-4.5%
Cc1nn(-c2ccc(N3CCCCC3)nn2)c(C)c1CCC(=O)Nc1ccc(F)cc1F	3.2%	-3.5%
O=C(NCCCn1ccnc1)/C(=C\c1ccccc1F)NC(=O)c1ccccc1	-24.6%	0.0%
COC(=O)c1[nH]c2cc(C)ccc2c1NC(=O)CN1CCc2cc(OC)c(OC)cc2C1	nt	-28.5%
COc1ccc([N+](=O)[O-])cc1NC(=O)c1ccc(N(Cc2ccccc2C)S(C)(=O)=O)cc1	-23.6%	-17.1%
CCc1ccccc1NC(=O)C1CCN(S(=O)(=O)c2ccc3c(c2)N(C(C)=O)CCO3)CC1	i	-8.5%
CC(OC(=O)C1=COCCO1)C(=O)Nc1cc(S(=O)(=O)N2CCCCC2)ccc1Cl (stereo not given)	-8.7%	-3.7%
Cc1ccc(C2C(C#N)=C(N)SC(N)=C2C#N)cc1	i	-3.4%
OCC[C@H]1C[C@@H](O)[C@H](O)[C@]2(OCc3ccccc32)O1	-21.0%	1.5%
CCOC(=O)c1ccccc1NC(=O)CSc1ccc(-c2cccnc2)nn1	-4.6%	-15.7%
Cc1ccc(-n2c(C)nc3c(cnn3-c3ccc(C)c(C)c3)c2=O)cc1C	-23.2%	?
O=C(c1cnsn1)N1CCN(c2ccccc2)CC1	-8.2%	-1.7%
CN(C)S(=O)(=O)c1ccc2c(c1)C(=NO)c1cc(S(=O)(=O)N(C)C)ccc1-2	-10.9%	-21.3%
CCC(=O)Nc1nnc(SCC(=O)NC2CCCC2)s1	4.7%	-0.8%
CC(=O)Nc1cccc(NC(=O)c2cc(Cl)ccc2Cl)c1	i	-6.9%
CC(NC(=O)C(C)(C)C)C(c1cccs1)N1CCOCC1 (stereo not given)	-1.2%	-13.5%
CC1CCCCC12NC(=O)N(CC(=O)N1CCN(S(=O)(=O)c3cccs3)CC1)C2=O (stereo not given)	-10.0%	-3.9%
COc1ccccc1NC(=O)CCS(=O)(=O)c1cc2c3c(c1)CCN3C(=O)CC2	-13.4%	-4.1%
CC12CCC(O)CC1CCC1C2CCC2(C)C(C(=O)CC(O)C(F)(F)F)CCC12 (stereo not given)	-2.8%	-27.4%
Cc1ccc(CNC(=O)OC2CC3CC2[C@H]2CCCCN2C3=O)cc1 (stereo not given in full)	16.4%	-8.9%
Cc1ccc(NS(=O)(=O)c2cc3[nH]c(=O)c(=O)[nH]c3cc2C)cc1N(C)C	-4.2%	7.2%
COc1ccccc1NC(=S)NC(=O)C(C)C	i	-10.8%
CCOc1ccccc1CN1[C@@H](c2ccc(OC)cc2)CC(C(=O)OC)(C(=O)OC)[C@H]1c1ccccc1	-23.8%	-1.9%
